Compound activity as filed in PubChem.
BJeLR viability: MLPCN primary cell-based screen for lethality selective to Ras in HRASV12 cells; AID 1554, 2009; inhibition, % (concentration not given with the values); BJeLR (HRASV12) viability, CellTiter-Glo ATP luminescence, 48 h; reference of the scale not given here; actives 0.17% (n = 300,000);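 active = replicate mean above 50%; inconclusive = above 50% but judged a plate artefact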;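 also: 50 nL library stock added to about 25 µL; numbers are from one replicate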
PrP 5UTR inh: inhibition of PrP 5' UTR reporter expression; cell-based PrP 5' UTR mRNA reporter, plate reader; inhibition, % (no concentration beside the values); actives 0.35% (n = 340,000);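 active = every replicate at 50% or more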;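 also: 0 = median of the neutral control wells; tested in H4 reporter cells; numbers are from one replicate; inactives centre near -14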
Mtb hypoxia inh: PubChem AID 1159583; M. tuberculosis hypoxia-regulated fluorescent reporter, fluorescence; fluorescence inhibition, % (concentration not given with the values); actives 0.1% (n = 300,000);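 active = 35 to 45% if threefold the growth effect, above 45% if 1.5-fold the growth effect; inactive = the rest, general growth blockers included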;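 also: wells of about 50 µL received 100 nL stock; 0% = vehicle wells and 100% = reference inhibitor wells; whole bacteria with a GFP reporter of the hypoxia response; strong numbers were not always called active; many hits fall short of the cut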
Autofluor counter: compound fluorescence in toxin protease inhibitor counterscreen; actives 3.1% (n = 360,000); compound autofluorescence counterscreen, microsphere flow cytometry; active compounds read high; fluorescence intensity (test concentration not listed); AID 624483;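 active = at least 3 SD above the mean of all compounds, about 16000 in these data; inconclusive = too few beads counted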;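 also: 100 nL of 1 mM stock went into each well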
RN4220 kill: growth inhibition of S. aureus RN4220, primary screen, OD600; inhibition, % (concentration not given with the values); AID 1259311, 2017; 16 h; actives 0.33% (n = 330,000);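 active = z-score of -3 or lower and OD600 up to 0.18 on both plates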;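 also: plate controls were untreated cells for no effect and reference antibiotic for full effect; stock transfer was 100 nL into about 80 µL; one replicate is shown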
Sa ugtP lethal: growth inhibition of ugtP-null S. aureus, primary screen, RN4220 ugtP deletion, OD600; 16 h; some inactives read as strong as hits; growth inhibition, % (no concentration beside the values); actives 0.54% (n = 330,000); AID 1259309, 2017;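 active = z-score under -3 and OD600 up to 0.15 on both plates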;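 also: plate controls were untreated wells for no effect and antibiotic for full effect; wells of about 80 µL received 100 nL stock; the first replicate is given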
Mtb hypoxia inh growth: recorded beside Mtb hypoxia inh, whose call it bears; growth inhibition, %; measured here: M. tuberculosis growth (absorbance);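 0% = vehicle and 100% = reference antibiotic; read after six days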
Numbers without * were called inactive; ? = inconclusive; / = no result given; & = joins results of further samples.

SMILES	BJeLR viability	PrP 5UTR inh	Mtb hypoxia inh	Mtb hypoxia inh growth	Autofluor counter	RN4220 kill	Sa ugtP lethal
Cn1cnnc1SCc1ccc(C(=O)N=Nc2c(O)n(Cc3ccc(Cl)cc3)c3ccccc23)cc1	5	-15	/	/	2528	1.5	-3
S=c1ccc2ccccc2[nH]1	-1	-2	6	13	4377	2.6	1
O=C(NN=Cc1ccc2c(c1)OCO2)C1CC1	/	-42	9&2	16&1	3959	-0.5&0.7	0&-4
Cc1cc(C)c(C#N)c(N2CCN(c3ccccc3F)CC2)n1	-8	-1	19	6	3978	45	58
COc1ccc(-c2nc(CS(=O)CC(=O)NC3CCCc4ccccc43)c(C)o2)cc1OC (stereo not drawn)	-6	-14	2	4	4427	-6.5	-6
Oc1ccc(C=NNc2ncc(Cl)cc2Cl)cc1	/	/	8	8	/	3.5	14
NC(=O)C1(N2CCCCC2)CCN(C(=S)Nc2ccc(S(N)(=O)=O)cc2)CC1	5	-53	18	8	3411	11	10
CC(OC(=O)c1ccc(NS(=O)(=O)c2ccc3[nH]c(=O)[nH]c3c2)cc1)C(N)=O (stereo not drawn)	-10	-3	7	4	5927	4.7	5
CC(C)(C)c1ccc(C(=O)NCc2nnc(SCC(=O)N3CCCc4ccccc43)n2-c2ccccc2)cc1	-2	-9	15	6	2171	7.2	16
C=CCOC(=O)COc1ccc2c(C)c(CC)c(=O)oc2c1	6	-16	4	8	23645*	4.6	19
CCOC(=O)c1c(NC(=O)C(C)Sc2cn(C)c3ccccc23)sc2c1CCC2 (stereo not drawn)	-6	-12	2	0	6029	-14	-6
O=C(O)[C@@H]1CSC2c3ccccc3C(=O)N21 (stereo partly drawn)	0	-9	-6	-2	3904	1.1	2

Part of the list above in order of length of the SMILES, lowest first.
SMILES	BJeLR viability	PrP 5UTR inh	Mtb hypoxia inh	Mtb hypoxia inh growth	Autofluor counter	RN4220 kill	Sa ugtP lethal
Oc1ccc(C=NNc2ncc(Cl)cc2Cl)cc1	/	/	8	8	/	3.5	14
Cn1cnnc1SCc1ccc(C(=O)N=Nc2c(O)n(Cc3ccc(Cl)cc3)c3ccccc23)cc1	5	-15	/	/	2528	1.5	-3
CC(C)(C)c1ccc(C(=O)NCc2nnc(SCC(=O)N3CCCc4ccccc43)n2-c2ccccc2)cc1	-2	-9	15	6	2171	7.2	16

Next records.
SMILES	BJeLR viability	PrP 5UTR inh	Mtb hypoxia inh	Mtb hypoxia inh growth	Autofluor counter	RN4220 kill	Sa ugtP lethal
NS(=O)(=O)c1ccc(CCn2c(=S)[nH]c3ccc(F)cc3c2=O)cc1	2	0	7	5	4624	-4.9	-12
CCC(C)Oc1ccc(C=Cc2[nH]c(=O)[nH]c(=O)c2[N+](=O)[O-])cc1OC (stereo not drawn)	/	/	7	0	/	5.1	2
Cc1ccc[n+](CC(=O)Nc2cccc(Cl)c2)c1	-3	6	7	17	4149	1.2	2
CCN(CC)C(=O)c1ccc(NC(=O)c2ccc(-c3nn(C)c(=O)c4ccccc34)cc2)cc1	-3	-5	1	2	4621	1.1	1
Cc1ccnc(NC(=O)c2ccoc2C)c1	33	-82	/	/	2217	/	/
COc1ccc2c(c1)CCc1cn[nH]c1-2	-2	-60	9	7	3524	2.2	-1
Cc1ccc(SC(=O)c2c(C)noc2-c2cc(C)on2)cc1	-8	-28	/	/	3395	/	/
CCOc1cccc(/C=N/NC(=O)c2ccc3c(c2)OCCO3)c1O	1	3	/	/	5456	/	/
COc1ccc(N2C(=O)C3CCCN3C2c2ccc(Cl)cc2)cc1 (stereo not drawn)	-3	-18	/	/	5671	-0.3	-6
CCC1=NN(C(=O)Cc2ccc([N+](=O)[O-])cc2)C(O)(c2ccc(Br)cc2)C1 (stereo not drawn)	13	-19	-1	11	8722	-0.7	-8
O=C(NCCCN1CCN(c2ccc(F)cc2)CC1)Nc1ccc([N+](=O)[O-])cc1	-3	-8	11	15	4510	8.3	-2
Cc1cccc(Cn2ccc(-c3ccc(Cl)cc3)c(C#N)c2=O)c1	2	-6	/	/	2696	-3.8	0

Molecules shown so far that contain a cyano group:
SMILES	BJeLR viability	PrP 5UTR inh	Mtb hypoxia inh	Mtb hypoxia inh growth	Autofluor counter	RN4220 kill	Sa ugtP lethal
Cc1cc(C)c(C#N)c(N2CCN(c3ccccc3F)CC2)n1	-8	-1	19	6	3978	45	58
Cc1cccc(Cn2ccc(-c3ccc(Cl)cc3)c(C#N)c2=O)c1	2	-6	/	/	2696	-3.8	0

Continued.
SMILES	BJeLR viability	PrP 5UTR inh	Mtb hypoxia inh	Mtb hypoxia inh growth	Autofluor counter	RN4220 kill	Sa ugtP lethal
COCCn1nnnc1C(c1cc2cc(C)ccc2[nH]c1=O)N1CCCCCC1 (stereo not drawn)	-4	-1	4	1	6753	3.3	2
Clc1ccc(C[n+]2cc(-c3ccccc3)n3c2CCC3)cc1	7	-17	2	8	3591	-0.1	-11
Cc1cccc2cc(CN(C(=S)NCC(C)C)C3CCCC3)c(=O)[nH]c12	-5	-23	-6	2	2574	1.2	-10
CCCCNS(=O)(=O)c1ccc2nc(-c3cccnc3)cc(C(=O)NCCCOC)c2c1	-5	-10	-7	5	3218	-3.7	-1
CCOC(=O)c1c(C)n(C(C)C)c2ccc(OC)cc12	0	/	-16	7	4019	6.5	4
COc1ccc(OC)c(NC(=S)N2CCc3ccccc3C2)c1	-2	-20	12	17	2082	-0.3	4
COc1ccc(-c2cc(C(=O)NCCCn3ccnc3)c3ccccc3n2)c(OC)c1	3	-46	0	1	6204	2.8	-1
CC(C)c1onc(C(=O)NCc2ccc(Cl)cc2)c1[N+](=O)[O-]	8	-16	9	4	2457	16	1
CSCCC(NC(=O)c1ccccc1)C(=O)NC1CC1 (stereo not drawn)	5	-12	-4	9	23748*	2.8	-7
COc1ccc2c(c1)C(=Cc1cnc[nH]1)C(=O)N2	/	/	-3	-7	/	9.9	-7
O=C(C1CCC(=O)N(C2CC2)C1)N1CCN(c2ccc(Cl)cc2)CC1 (stereo not drawn)	0	-38	14	-2	5645	1.6	5
NS(=O)(=O)c1ccc(NC(=O)CN2CCCN(S(=O)(=O)c3ccc(F)cc3)CC2)cc1	-4	32	5	3	4482	1.3	6
O=C(CSCc1ccc(Cl)cc1Cl)Nc1ccccc1C(=O)Nc1ccc(C(=O)O)cc1	2	5	-7	0	2715	2.7	5
Nc1nnn(CC(=O)N/N=C/c2cccc3ccccc23)n1	14	-23	/	/	2204	/	/
NC(=O)C1(N2CCCCC2)CCN(C(=O)NC23CC4CC(CC(C4)C2)C3)CC1	-3	-1	3	3	?	-1.2	-2
COc1cccc(C(=O)Nc2cc3c4c(c2)CC(=O)N4CCC3)c1	4	-14	-2	2	/	0.1	-1
CCNC(=S)NNC(=O)CCn1cc(C)cn1	-10	-12	/	/	2585	/	/
CCN(CC)CCNC(=O)C(=O)Nc1cc2c3c(c1)CC(=O)N3CCC2	-1	0	8	0	5168	0.8	3
Cc1ccc(Cl)cc1N1CCN(Cc2cc3c(cc2O)CCC3)CC1	-4	-17	10	2	?	-2.1	4
C=CCN(c1ccccc1)S(=O)(=O)c1cccc(C(=O)Nc2ccc(N3CCOCC3)cc2)c1	/	-16	-1	0	5164	6.1	-3
C/C(=N\O)c1ccc2c3c([nH]c2c1)CCCC3	1	-77	/	/	2886	/	/
O=C(ON=C1CCCc2ccccc21)C1CC1	/	/	11	2	/	4.3	3
COc1ccc(CCNC(=O)[C@H](C)NC(=O)N2CCn3c2nc2ccccc23)cc1OC	1	-9	0	5	4907	0.7	-1
COc1ccc(-c2cc(C(=O)OC3CCOC3=O)c3ccccc3n2)cc1 (stereo not drawn)	-2	-14	4	1	7284	1.2	4
Cc1c(Nc2nc3ccccc3nc2NS(=O)(=O)c2ccccc2)c(=O)n(-c2ccccc2)n1C	6	-13	13	4	4449	0.1	14
COC(=O)c1cc2occc2n1Cc1nc(-c2ccccc2Cl)oc1C	7	-28	5	1	5638	4.3	11
N#CCSc1nc2c(c(=O)n1Cc1ccccc1)C1(CCCC1)Cc1ccccc1-2	-1	1	5	9	3351	-4.4	71
CCOc1cc(/C=C2/C(=N)N3C=CSC3=NC2=O)ccc1OCCCOc1ccccc1C	-4	-13	5	7	11820	24	-17
COc1ccc(CN2C(=O)C3Cc4c([nH]c5ccccc45)C(C)(C)N3C2=O)cc1 (stereo not drawn)	/	/	1	4	/	3.4	3
CS(=O)(=O)N1CCc2cc(C(=O)NC3CC3)ccc21	17	-23	1	0	2709	3.0	-1
Cc1ccc(C(=O)N/N=C\c2ccccn2)cn1	-11	-21	/	/	4456	/	/
COc1cccc(C(=O)NCC(=O)N2CCC(C)CC2)c1	6	-33	8	13	3222	-12	-4
COc1ccc(C(=O)COC(=O)CCCN=C2NS(=O)(=O)c3ccccc32)c(OC)c1	-3	-13	2	2	/	-2.5	-2
COC(=O)C(CC(C)C)N(Cc1cc(OC)cc(OC)c1)S(=O)(=O)c1ccccc1Br (stereo not drawn)	/	-51	3	-3	3488	7.8	8
O=C(COC(=O)c1cccnc1Cl)c1ccc(OC(F)F)cc1	7	-61	14	-2	4244	6.0	3
CCn1c(=O)c2ccccc2n(Cc2ccccc2C)c1=O	-4	2	11	1	2893	3.4	21
CC(=O)c1c(C)nc(-c2cccc([N+](=O)[O-])c2)n1O	-6	-14	2	12	4499	9.1	5
COC(=O)c1ccccc1NC(=O)C1CCCO1 (stereo not drawn)	-8	9	-1	3	2242	3.5	-3
O=C(CCn1c(=O)oc2cc(Cl)ccc21)Nc1ccc(N2CCOCC2)cc1	4	-21	-8	4	5190	3.7	10
CC(=O)N1c2c(cc(Br)cc2S(=O)(=O)N2CCOCC2)CC1C (stereo not drawn)	-7	-14	14	6	9881	3.0	5
CSC1=NCCN1C(=O)Cc1ccc(F)cc1	9	6	/	/	4696	8.9	-2
COC(=O)C1=C(c2ccc(-c3ccccc3)c(F)c2)CC2CCC1N2C(=O)NCCOc1ccc(OC)cc1 (stereo not drawn)	/	/	-8	7	/	-1.4	16
CC(C)c1ccc2[nH]c3c(c2c1)[C@@H]1CCN2C(=O)CCC[C@H](C3)[C@H]12	9	-32	/	/	3407	/	/
O=C(OCc1nnc(-c2ccccc2)o1)C1CC(=O)N(c2ccccc2)C1 (stereo not drawn)	-4	-7	-4	-12	5592	4.2	3
O=C(CN1C(=O)COc2ccc(S(=O)(=O)N3CCCC3)cc21)N1CCCC1	7	-13	-3	-1	4683	1.6	-4
COc1cccc(-c2ccc(-c3noc(-c4cccs4)n3)c(OC)n2)c1	-4	-36	5	4	2890	8.8	-8
CCN(CC)c1ccc(/C=C/[N+](=O)[O-])cc1	4	-19	14	5	12328	3.9	9
CCC(C)N(C(=O)COC(=O)c1[nH]c(C)c(C(C)=O)c1C)C1CCS(=O)(=O)C1 (stereo not drawn)	-9	-21	/	/	4410	4.7	0
CCOc1ncccc1C(=O)OCC(=O)c1ccc[nH]1	-4	-9	2	9	4189	3.2	4
COC(=O)Cn1nc(-c2ccccc2)c2cc(Cl)ccc21	7	-18	4	6	8071	1.8	9
CCCS(=O)(=O)N1CCCC(C(=O)c2ccccc2OC)C1 (stereo not drawn)	8	47	14	3	3344	0.8	-1
N#Cc1ccc(-c2ccc(Cl)cc2)nc1Oc1ccc(F)cc1	-1	2	-20	-3	9643	-2.6	-13
O=C(COc1ccc(Nc2ccccc2)cc1)Nc1ccncc1	7	-29	9	-1	3946	0.8	6
O=C(NC1=NCCS1)C1CC2CCC1C2 (stereo not drawn)	-21	-12	/	/	4958	2.2	7
O=C1CCCC(=O)C1C(=O)C1CCN(S(=O)(=O)c2ccccc2)CC1	1	-12	9	7	3861	5.9	3
CN(CC(=O)Nc1ccccc1Cl)C(=O)c1cc(-c2cccs2)nn1-c1ccccc1	0	-15	-4	0	4542	1.9	6
COC(=O)[C@H]1C[C@H]2[C@@H]3CC[C@H]4C[C@@H](OC)CC[C@]4(C)[C@H]3CC[C@]2(C)[C@@]2(CCCO2)O1	/	-4	-6	2	3544	-3.0	7
O=C(CN1CCC(NC(=O)c2ccccc2F)CC1)NCc1ccc(F)cc1	0	-28	12	11	3754	3.9	3
CC(C)(C)C(=O)NC(=S)Nc1sc2c(c1C(N)=O)CCC2	-4	-4	-6	15	4557	1.2	-1
Cc1ccc(C(=O)CSc2nc3ccccc3c(=O)[nH]2)cc1	5	-11	6	3	21593*	2.2	-11
O=C(CCNS(=O)(=O)c1ccc2ccccc2c1)NCCOc1ccccc1	/	-86	9	4	?	-0.4	9
Cc1ccc(C(=O)NC2CCN(C(=O)NCc3ccccc3)CC2)cc1	-2	-31	10	-5	3938	2.1	6
